nsP2pro primary – blocks chikungunya virus nsP2 protease peptide cleavage; AID 1964107; 1.1% of 31,000 active; Potency, µM (doses to about 24.9 µM), without a hit: at the highest dose activity change, negative = inhibition, actives largely listed as inhibitors; Q8JUX6; FRET peptide cleavage, nsP2pro, fluorescence 1 h; active means well fitted inhibition curve with a large enough effect; inconclusive means small, poorly fitted or top-dose-only effect; inactive means no such curve, though single readings can be large or run the other way; note: nearly all actives have a fitted effect of over 60% in size; a reference inhibitor and vehicle were the controls
Numbers without * were called inactive; i = inactive; u = inconclusive; & = joins results of further samples; [ ] = remark or other dose. % is set by controls: 0 for no effect and ±100 for the full control effect; potency is the fitted concentration of half-maximal effect. Only part of the results is shown; the hit share may differ from the screen's.

SMILES	nsP2pro primary
Cc1ccc(NC(=O)C2CCCN2S(=O)(=O)c2cccc3cccnc23)c(C)c1 (configuration not stated)	-15%
CCOC(=O)CNC(=O)c1cc2c(=O)n3cccc(C)c3nc2n1C	u
CCN1CCN(c2ncc3c(n2)CCN(Cc2ccccc2C)C3)CC1	-27%
O=C(NC1CC1)c1ccc(Cn2c(SCc3cccc(F)c3)nc3cccnc32)cc1	-2%
C=C1C(=O)OC[C@@H]1C/C=C(\C)CC1CC(C)C(=O)O1 (some centres not stated)	3%
COc1ccccc1C(=O)Nc1ccc(NC(=O)c2cccs2)cc1	-8%
O=C(CSc1nc2c([nH]c3ccccc32)c(=O)n1-c1ccccc1)Nc1ccc2c(c1)OCCO2	-16%
CCOc1ccc(C2=NC(c3ccc(OC)cc3)=Nc3ccc(Cl)cc3N2)cc1	-8%
Cc1nc(-c2ccc(OCC(C)C)c(C#N)c2)sc1C(=O)O	u
Clc1ccc2c(c1)CCc1cccnc1C2=C1CCNCC1	0%
COC(=O)c1sccc1S(=O)(=O)N1CCN(c2ccccc2)CC1	-13%
Cc1nc(NCc2ccccc2)c2nc(-c3ccccc3)n(CC(C)(C)CN(C)C)c2n1	-9%
OC[C@@H]1O[C@H](CNC2CCOCC2)[C@H](N2CCCC2)[C@@H]1O	3%[39.2 µM]
COCC1CN(Cc2cccnc2)CC12CCNCC2 (configuration not stated)	17%
CN1C(=O)c2ccccc2Sc2ccc(NC(=O)N3CCN(c4cccc(Cl)c4)CC3)cc21	-21%
CCC(C)NC(=O)Cn1c(=O)n(-c2cc(OC)cc(OC)c2)c(=O)c2ccccc21 (configuration not stated)	-10%
O=C(Cn1ncc2c3ccccc3n(Cc3ccccc3F)c2c1=O)NCCc1ccc(Cl)cc1	-19%
O=[S+]([O-])(c1cccs1)N1CCCC2(CC(c3ccccc3)=NO2)C1 (configuration not stated)	3%
O=[S+]1([O-])N=C(Oc2cccnc2)c2ccccc21	i
CC(=O)c1cccc(NC(=O)Nc2c(C)n(C)n(-c3ccccc3)c2=O)c1	-21%
Cc1cc2[nH]c3c(=O)n(Cc4ccccc4F)ncc3c2s1	2%
COc1ccc2c(=O)c(C)c(-c3ccccc3)oc2c1CN(C)C	-34%
Cc1cc(C)cc(CCC(=O)N2CCN(c3ccc(C#N)cn3)CC2)c1	i
CCNc1nc(Oc2ccc(=O)n(-c3ccccc3)n2)nc(N(C)C)n1	-21%
Cc1occc(=O)c1O	-15%
Cc1cnc(C(=O)NC2C[C@H]3CC[C@@H](C2)N3C(=O)c2ccccc2C)cn1 (some centres not stated)	-4%
CCCCCC(=O)N1CC[C@@H](CC(=O)N(C)CC#N)[C@@H](CC)C1	-6%[39.2 µM]
COc1ccc(-c2c(C)nn3c(C(F)(F)F)cc(-c4ccc(Br)cc4)nc23)cc1	-20%
CC(C)OCCCn1c(SCC(=O)c2ccccc2)nc2c(sc3ccccc32)c1=O	-20%
Cc1cccc(C(C)C)c1NC(=O)Cn1c(=O)oc2cc(S(=O)(=O)N3CCCC3)ccc21	-16%
CCCc1cc(N2CCN(c3ccccc3F)CC2)n2cnnc2n1	-5%
COc1ccc(-c2nn(-c3ccccc3)cc2C(=O)Nc2ccccc2OC)cc1	-20%
CCOc1ccc(C(=O)Nc2c(C(=O)c3ccc(OC)cc3)oc3ccccc23)cc1	-24%
COCCN1CC2(CCCN(C(=O)CNC(N)=O)C2)CCC1=O (configuration not stated)	-4%
Cc1ccn(-c2cc(Cl)ccc2[C@@H](Oc2cc(-c3ccc(C[C@H](N)C(=O)O)cc3)nc(N)n2)C(F)(F)F)n1	75%[activator]
O=C1CCCC(=O)C1C(=O)c1ccc(C(F)(F)F)cc1[N+](=O)[O-]	-9%&-10%
CC1CCCC(O)CC(=O)c2c(O)cc(O)cc2CC(=O)O1 (configuration not stated)	-16%
CCCCN(C)C(=O)Cn1nc(-c2ccc(Cl)cc2)ccc1=O	-10%
O=C1NCCCc2[nH]c(-c3cnn(-c4ccc(F)cc4)c3)nc21	i
COc1ccccc1-c1ccc(C(=O)N2CCC(C(=O)Nc3ccccc3Cl)CC2)cc1	i
Cc1c(Cl)cccc1-n1ncc(C(=O)NC2CCCC2)c1C1CCN(C(=O)OC(C)(C)C)CC1	-12%
O=C(CC1CCOCC1)N1CCN(Cc2ccc(F)cc2F)CC1	i
CC(C)c1ccccc1NC(=O)C(Cc1c[nH]c2ccccc12)NC(=O)OC(C)(C)C (configuration not stated)	-13%
COc1cccc(C2c3c(ncn(-c4ccccc4Br)c3=N)Oc3ccc4ccccc4c32)c1 (configuration not stated)	-6%
Cc1nn(CC(=O)NC(C)Cc2cnccn2)c(=O)n1CCc1ccccc1 (configuration not stated)	1%
CCc1nnc(SCc2nc(-c3ccccc3Cl)oc2C)c2cc3sc(C)cc3n12	-23%
CC(=O)OC[C@]12[C@H](OC(C)=O)C(=O)[C@@H]3[C@@H](O)[C@@]14O[C@@]3(C)COC(=O)c1cccnc1[C@@H](C)[C@H](C)C(=O)O[C@@H]([C@H](O)[C@@H]2OC(C)=O)[C@]4(C)O	24%[10 µM]
CCOC(=O)c1[nH]c(C)c(CCC(=O)NC(C)c2ccccc2)c1C (configuration not stated)	-9%
C/C(=C(\CCOP(=O)(O)O)SC(=O)c1ccccc1)N(C=O)Cc1cnc(C)nc1N	-8%[2.68 µM]
COc1cccc(CNC(=O)CN(C)S(=O)(=O)c2ccc3[nH]c4c(c3c2)CCCC4)c1	-15%
O=C(NCc1ccncc1)C1CN(Cc2ccccn2)CC12CCOCC2 (configuration not stated)	i
O=C(CN1C(=O)COc2ccc(C(=O)COc3ccccc3F)cc21)Nc1ccc(F)cc1	-7%
CCNC(=O)CC1N=C(c2ccc(Cl)cc2)c2cc(OC)ccc2-n2c(C)nnc21 (configuration not stated)	13%&-7%
Cc1noc(C)c1S(=O)(=O)N1CCc2n[nH]c(=O)n2CC1	i
O=C1COCCN1C1CCN(Cc2ccc(F)cc2)CC1	-6%
COc1ccccc1Cn1ccn(Cc2ccc(C)cc2)c(=O)c1=O	-10%
CC(C)n1nccc1S(=O)(=O)N[C@@H]1[C@@H](Cc2ccccc2)[C@H]2OCC[C@@H]12	-9%
Cc1ccnc(NC(=S)N2CCCC(Nc3cccc(C(F)(F)F)c3)C2)c1 (configuration not stated)	-9%
Cc1cc(N[S+](=O)([O-])c2cc3c(cc2Cl)CCC(=O)N3)ccc1Cl	i
CC1=NOC2(CCN(CC3CC3)CC2)C1	-3%[39.2 µM]

Taken from above.
Entry for `CCNC(=O)CC1N=C(c2ccc(Cl)cc2)c2cc(OC)ccc2-n2c(C)nnc21` (configuration not stated) in nsP2pro primary: 13%&-7%
Entry for `CCc1nnc(SCc2nc(-c3ccccc3Cl)oc2C)c2cc3sc(C)cc3n12` in nsP2pro primary: -23%
Entry for `Cc1ccnc(NC(=S)N2CCCC(Nc3cccc(C(F)(F)F)c3)C2)c1` (configuration not stated) in nsP2pro primary: -9%
Entry for `CC(=O)OC[C@]12[C@H](OC(C)=O)C(=O)[C@@H]3[C@@H](O)[C@@]14O[C@@]3(C)COC(=O)c1cccnc1[C@@H](C)[C@H](C)C(=O)O[C@@H]([C@H](O)[C@@H]2OC(C)=O)[C@]4(C)O` in nsP2pro primary: 24%[10 µM]

(list continues)
SMILES	nsP2pro primary
COc1ccc(-c2cc3nc4c(c(=O)n3[nH]2)CN(C(=O)c2ccc(C)nc2)CC4)cc1	2%
COc1ccc(CNC(=O)CC[C@]23CC[C@](C)(O)C[C@H]2C(C)(C)C[C@@H]3NC2CCOCC2)cc1	1%
Cc1ncsc1CN(Cc1ccccc1)C(=O)c1cn(CCC2CCCCC2)nn1	i
CC(C)(CN1CCC(Cc2ccc(C(=O)O)cc2)C1)N1CCOCC1 (configuration not stated)	2%
CCOc1ccccc1NC(=O)N(Cc1ccc(C)o1)C1CCN(C(C)=O)CC1	-16%
COc1ccccc1OCCNC(=O)c1cn2ccnc(-c3ccc(C)cc3)c2n1	-11%
Cc1cc(Cl)c2oc(C(=O)N(Cc3c(C)nn(C)c3C)C3CC3)c(C)c2c1	i
OCC(O)CCO/N=C1/C(c2c(O)[nH]c3ccccc23)=Nc2ccccc21 (configuration not stated)	16%
O=C(CCn1c(=O)c2cccn2c2cccnc21)NCc1cccc(Br)c1	-17%
CC1=C(C(=O)Nc2ccccc2)C(c2ccccc2Br)N=C(Nc2nc3ccccc3o2)N1 (configuration not stated)	i
COc1ccc(N2CCN(C(=O)c3ccc(C)c(NC(=O)c4nsc5ccccc45)c3)CC2)cc1	-14%
C=C/C=C\CC1=C(C)[C@@H](OC(=O)[C@H]2[C@H](C=C(C)C)C2(C)C)CC1=O	-14%
COc1ccc(NC(=O)c2cccnc2)cc1S(=O)(=O)Nc1ccc(Br)cc1	3%
COc1ccccc1CNC(=O)CCNS(=O)(=O)c1ccc2c(c1)oc(=O)n2C	-19%
COc1ccc(-c2ccc3c(N4CCOCC4)nc(N4CC(C)OC(C)C4)nc3n2)cc1CO (configuration not stated)	-3%

A second format for part of the listing above:
| Compound | nsP2pro primary |
| --- | --- |
| COc1ccc(NC(=O)c2cccnc2)cc1S(=O)(=O)Nc1ccc(Br)cc1 | 3% |
| CC(C)(CN1CCC(Cc2ccc(C(=O)O)cc2)C1)N1CCOCC1 (configuration not stated) | 2% |
| COc1ccc(CNC(=O)CC[C@]23CC[C@](C)(O)C[C@H]2C(C)(C)C[C@@H]3NC2CCOCC2)cc1 | 1% |
| COc1ccc(-c2ccc3c(N4CCOCC4)nc(N4CC(C)OC(C)C4)nc3n2)cc1CO (configuration not stated) | -3% |
| Cc1ncsc1CN(Cc1ccccc1)C(=O)c1cn(CCC2CCCCC2)nn1 | i |
| COc1ccccc1OCCNC(=O)c1cn2ccnc(-c3ccc(C)cc3)c2n1 | -11% |
| OCC(O)CCO/N=C1/C(c2c(O)[nH]c3ccccc23)=Nc2ccccc21 (configuration not stated) | 16% |

(list continues)
SMILES	nsP2pro primary
COC(=O)c1cc2c(s1)c1cnn(Cc3ccccc3F)c(=O)c1n2C	i
OCc1ccnc(NC(=S)N2CCN(c3cccc(C(F)(F)F)c3)CC2)c1	i
CCOC(=O)c1cn(C2CN(C(=O)Cc3cccc(Cl)c3)C2)nn1	-15%
Cc1cc(C)nc(NC(=S)N2CCN(c3cncc4ccccc34)CC2)c1	-4%
O=C(NC1CCN(CCCCC2(C(=O)NCC(F)(F)F)c3ccccc3-c3ccccc32)CC1)c1ccccc1-c1ccc(C(F)(F)F)cc1	44%&58%[activator]
Cc1ccc(S(=O)(=O)n2cc(C(=O)Nc3nc(-c4ccccc4)cs3)c3ccccc32)cc1	-13%
COC(=O)NNC(=O)C1CCC(C)CC1 (configuration not stated)	-8%
COc1cc(/C=C/C(=O)OC[C@H]2O[C@@H](OC3OC=C(C(=O)O)C4C(O)CC(C)(O)C34)[C@H](O)[C@@H](O)[C@@H]2O)cc(OC)c1O (some centres not stated)	-2%[10 µM]
Cn1cc(CNCC2(CO)C[C@@H](O)[C@@H](O)C2)c2ccccc21 (some centres not stated)	-9%[39.2 µM]
Cc1ccc(CN(C(=O)Nc2cccc(Cl)c2)c2ccccn2)cc1	-13%
CON=C1C[C@]2(C[C@@H]3C[C@@H](C/C=C(\C)C[C@@H](C)/C=C/C=C4\CO[C@@H]5[C@H](O)C(C)=C[C@@H](C(=O)O3)[C@]45O)O2)O[C@H](/C(C)=C/C(C)C)[C@H]1C	-10%
CC1=CC(=O)CC(C)(C)[C@@]1(O)CC[C@@H](C)O[C@@H]1O[C@H](CO)[C@@H](O)[C@H](O)[C@H]1O	2%
Cc1ccc(N2CCN(C(=O)c3noc(-c4ccc[nH]c4=O)n3)CC2)cc1	-1%
CCn1c(-c2nonc2N)nc2c(C#CCO)ncc(OCCCN)c21	52%[activator]
CN1C(=O)CC[C@]2(C(=O)NCc3ccco3)CCCC[C@@H]12	u
CC(C)C[C@H](NC(=O)CNC(=O)c1cc(Cl)ccc1Cl)B1OC(=O)C(CC(=O)O)(CC(=O)O)O1	-13%&-2%
COc1cccc(-c2cccc(C(=O)N3CCN(C(=O)Cc4cccc(Cl)c4)CC3)c2)c1	i
CCN(CC)S(=O)(=O)c1nnc(NC(=O)COc2ccc(Cl)cc2)s1	5%
Cc1ccc(CNC(=O)CN2C(=O)CSc3ccc(S(=O)(=O)N(C)C)cc32)cc1	-26%
COc1ccc(OC)c(CCNC(=O)CN2C(=O)COc3ccc(S(=O)(=O)N4CCCCCC4)cc32)c1	-14%
CCCCN1CC(c2nc3ccccc3n2CCCCOc2cccc(C)c2C)CC1=O (configuration not stated)	-9%
O=C(c1cc2ccccc2[nH]1)N1CCCC2(C1)NC(=O)N(Cc1ccccc1)C2=O (configuration not stated)	-5%
Cc1ccc(N(CC(=O)Nc2ccc(Cl)cc2)S(=O)(=O)c2cccc3nonc23)cc1	-14%
C[C@@H]1O[C@@H](O[C@H]2[C@@H]3C=CO[C@@H](O[C@@H]4O[C@H](CO)[C@@H](O)[C@H](O)[C@H]4O)[C@@H]3[C@@]3(CO)O[C@@H]23)[C@H](OC(=O)/C=C/c2ccccc2)[C@H](O)[C@H]1O	23%[10 µM]
CN(C)CCCN1CCCN(C(=O)c2cccc(-c3cc(O)c4ncccc4c3)c2)C1	1%
Cn1nccc1C(=O)N1CCC(c2nc(CCOCC3CCCC3)no2)C1 (configuration not stated)	i
Oc1ccc(Cl)c2cccnc12	43%[activator]
COCCN1Cc2cccc(C(=O)Nc3ccc(Cl)cc3Cl)c2C1=O	-19%
Cc1ccc(/C=C(\C#N)c2nc(-c3ccc(-c4ccccc4)cc3)cs2)cc1	-19%
CCOC(=O)CC(SP(=S)(OC)OC)C(=O)OCC (configuration not stated)	8.8µM*
COC(=O)c1scc(-c2ccccc2)c1S(=O)(=O)Nc1ccccc1	2%
Cc1cccc(C)c1Nc1c(-c2ccsc2)nc2cccc(C)n12	-7%
O1[As]2O[As]1O2	-6%
CC(C)=CCC/C(C)=C/CC/C(C)=C/CC/C(C)=C/CC1=C(C)C(=O)c2ccccc2C1=O	-27%
C=C1[C@@]23C(=O)O[C@H](C)[C@]24O[C@@]2(C(=C)[C@]5(C=CC(=O)OC5(C)C)CC[C@]32C)[C@H](O)[C@@]1(C)OC4=O	126%[activator][10 µM]
Cc1ccc(-c2nnc(Nc3ccc(O)cc3)c3ccccc23)cc1S(=O)(=O)N1CCCCC1	u
